Screening data from PubChem BioAssay.
Sa growth inh: S. aureus growth inhibition; hit rate 0.53% among 170,000; S. aureus RN4220 growth, OD600, 20 h, 42 °C; stronger effect = lower value; relative growth, % (concentration not given with the values);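 active = growth at 42 °C up to 50% and 20 or more points under that at 30 °C, or under 10% at both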;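 note: 300 nL library stock went into each well; scaled to the means of positive and negative controls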
GIV Gai3 FP: inhibitors of GIV GBA-motif binding to rat Galpha-i3; Galpha-i3/FITC-GIV peptide fluorescence polarization, 90 min; stronger effect = lower value; scaled: aluminum fluoride 0%, vehicle 100%; P08753; hit rate 0.42% among 210,000; percent of control (FP), % (concentration not given with the values);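 active = replicate mean at 85% of control or lower, very high polarization wells dropped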;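 note: wells of about 15 µL received 100 nL stock; the first replicate is given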
Target sequence (P08753 whole entry, looked up): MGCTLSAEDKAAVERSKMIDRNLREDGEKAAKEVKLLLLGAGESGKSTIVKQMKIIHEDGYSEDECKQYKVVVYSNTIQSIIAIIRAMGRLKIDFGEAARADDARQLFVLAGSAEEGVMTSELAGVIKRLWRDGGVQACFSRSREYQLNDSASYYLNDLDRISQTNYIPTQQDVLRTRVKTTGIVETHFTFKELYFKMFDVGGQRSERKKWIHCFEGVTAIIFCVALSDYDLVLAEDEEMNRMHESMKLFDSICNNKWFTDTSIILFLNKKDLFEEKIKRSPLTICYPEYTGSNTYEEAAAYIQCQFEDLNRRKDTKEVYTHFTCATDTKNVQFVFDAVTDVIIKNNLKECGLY
HCMV NEC inh: disrupts HCMV UL50-UL53 complex binding; hit rate 0.15% among 190,000; AID 1918969; HTRF UL50-UL53 interaction, normalized percent inhibition; inhibition, % (no concentration beside the values);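 active = both replicates at 50% or more, plus weaker picks with an unusually low signal ratio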;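 note: stock transfer was 100 nL into about 20 µL; 0% = negative control wells and 100% = wells with untagged competitor protein; inactives centre near -12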
Sa growth inh second temp: second read-out of Sa growth inh, no call of its own (marks repeat the call); relative growth, %; measured here: growth at 30 °C;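 optical density after 20 h as mean of two plates; 100% = untreated growth and lower means inhibition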
* = called active by the depositor; . = no result given; & = joins results of further samples.

SMILES	Sa growth inh	Sa growth inh second temp	GIV Gai3 FP	HCMV NEC inh
CCOc1ccc(N2CC(NC(=O)c3ccc(S(=O)(=O)N4CCOCC4)cc3)CC2=O)cc1 (stereo not given)	119.5	86.6	95.4	.
CSc1ccc(C2c3c(oc4cc(C)cc(C)c4c3=O)C(=O)N2CCO)cc1 (stereo not given)	98.9	76.9	98.6	-49.9
O=c1oc2c3c(ccc2c2ccccc12)OCN(Cc1cccc(Cl)c1)C3	109.9	75.8	98.6	-13.7
O=C(CSCc1nc2c(nnn2Cc2ccc(F)cc2)c(=O)[nH]1)NC1CCCCCC1	94.6	78.8	96.7	.
CNC(=O)CCc1nc(-c2cc3ccc(C)cc3[nH]c2=O)no1	.	.	109.3	-22.2
COc1ccc(C(=O)c2cnc(C(C)C)n2C)cc1	99.8	81.8	103.4	-3.7
Cc1cc(NC(C)C)n2nc(C(F)(F)F)c(-c3ccccc3Cl)c2n1	.	.	106.7	-19.7
Cc1[nH]c2ccccc2c1C(=O)CN1CCN(c2ccccc2)CC1	.	.	96.2	-14.9
Cc1ccccc1CSc1ccc(-c2cccs2)nn1	85.7	96.3	112.0	.
O=c1c(=O)n(-c2cccc(Cl)c2)ccn1Cc1cccc(C(F)(F)F)c1	87.3	83.8	97.8	.
Cc1ccc2oc(=O)c3cc(C(=O)NCCN4CCCCCC4)sc3c2c1	91.2	82.5	102.3	-8.1
COc1ccc(-c2nc(SCC(=O)N3CCCCC3C)n[nH]2)cc1 (stereo not given)	104.4	103.0	103.3	.
Cc1ccccc1-c1noc(-c2ccccc2OCC(=O)Nc2cccc([N+](=O)[O-])c2)n1	103.0	91.7	100.5	-3.7
O=C(NCSc1nc2ccccc2o1)c1cc2ccccc2o1	121.9	89.2	.	-30.2
COc1ccc(N2CC(NC(=O)C(=O)c3c[nH]c4ccccc34)CC2=O)cc1 (stereo not given)	123.6	88.5	102.5	.
CCOC(=O)Cn1c(=O)n(C2CCCCC2)c2nc(-c3cccc(OC)c3)nc(C(N)=O)c21	95.4	96.6	103.4	.
O=C(Nc1ccccc1)OCCCc1ccccc1	90.8	91.6	102.5	.
O=S(=O)(CCSc1ccccc1)c1ccccc1	106.8	86.2	104.6	2.8
O=C(c1c2c(nc3ccccc13)C(=O)N(C1CCCCC1)C2)N1CCC(c2ccccc2)C1 (stereo not given)	.	.	108.3	-13.5
Cc1nn(C(C)C(=O)O)c2ccccc12 (stereo not given)	92.6	90.3	102.4	-26.1
O=C(COc1ccc(-c2nnco2)cc1)Nc1cc(C(F)(F)F)ccc1-n1cncn1	91.5	87.6	.	-9.9
Cc1ccc(S(=O)(=O)NCc2cccn2Cc2cccc(F)c2)cc1	.	.	109.7	-17.7
Cc1ccc2onc(CC(=O)Nc3ccc(C(C)C)cc3)c2c1	102.2	95.7	100.7	0.5
CCCCCn1c(N)c(C#N)c2nc3ccccc3nc21	90.3	89.9	.	-27.1
CCN(CC)c1ccc(C2(O)C(=O)c3ccccc3C2=O)cc1	145.7	83.0	.	-53.4
COc1ccccc1-c1nc(CSc2ccccc2N)no1	106.7	93.3	100.5	-1.5
O=C1CCCCC1C(=O)c1ccccc1 (stereo not given)	86.6	81.7	97.5	-23.8
CC(=S)Nc1c(O)[nH]c2ccccc12	96.6	88.1	104.6	.
CN(C)c1cccc(NC(=O)c2cccs2)c1	107.9	69.0	.	-15.7
COc1cc(/C=C2\C(=O)NC(=S)N(c3ccc(C)cc3)C2=O)ccc1OCC(=O)O	.	.	103.2	-16.8
COc1ccc(C2CCCN2Cc2cc(OC)cc(OC)c2)cc1 (stereo not given)	.	.	101.6	-16.7
Cc1cc(OCC(=O)NN)no1	101.4	99.8	.	9.4
Cc1cc(C)c(NC(=O)CCN2C(=O)c3ccccc3Sc3ncccc32)c(C)c1	84.5	104.1	106.4	.
Cc1cc(C)n(CCCNCC(O)c2ccccc2)n1 (stereo not given)	90.4	92.9	.	-4.8
Cn1c(=O)c(N2CCCC(C(=O)NCc3ccc(Cl)cc3)C2)nc2ccccc21 (stereo not given)	.	.	103.0	-5.7
Fc1ccccc1CN1CCC(CNc2nc(-c3ccccc3)no2)CC1	103.7	85.3	99.7	-25.6
CCN(CC)S(=O)(=O)c1ccc(Sc2cccc(C(F)(F)F)c2)nc1	90.3	87.5	.	-36.8
O=S(=O)(c1ccccc1)C(Cc1ccc(F)cc1)c1ccco1 (stereo not given)	114.8	77.5	.	-19.3
Clc1ccc(N2CCN(c3ncnc4c3cnn4-c3ccccc3)CC2)cc1Cl	106.7	91.0	98.9	.
CC(=O)N1CCc2cc(S(=O)(=O)CCC(=O)NCc3ccc(Cl)cc3)ccc21	91.7	78.6	106.1&109.2	1.7
NS(=O)(=O)c1ccc(CNC(=O)C23CC4CC(CC(C4)C2)C3)cc1	104.3	81.4	.	-33.2
CCOc1ccc(-c2noc(-c3cccn4c(=O)c5ccccc5nc34)n2)cc1OC	.	.	93.1	-25.1
N#CCc1ccc(NC(=O)CC2(CC(=O)O)CCCC2)cc1	111.4	95.6	107.3	-0.7
COc1ccc(S(=O)(=O)NCCc2sc(-c3cccc(C)c3)nc2C)cc1	101.4	78.8	101.3	.
CCOc1ccccc1NC(=O)CSc1nc2c(c(=O)[nH]1)CCC2	92.0	93.8	112.8	-3.9

Whole records, quoted from the list. Values in the order: Sa growth inh	Sa growth inh second temp	GIV Gai3 FP	HCMV NEC inh
`O=S(=O)(c1ccccc1)C(Cc1ccc(F)cc1)c1ccco1` (stereo not given) in the list: 114.8	77.5	.	-19.3
`CCOc1ccc(-c2noc(-c3cccn4c(=O)c5ccccc5nc34)n2)cc1OC` in the list: .	.	93.1	-25.1
`CCN(CC)S(=O)(=O)c1ccc(Sc2cccc(C(F)(F)F)c2)nc1` in the list: 90.3	87.5	.	-36.8

Going on with the list.
SMILES	Sa growth inh	Sa growth inh second temp	GIV Gai3 FP	HCMV NEC inh
CN(C(=O)CSc1nc(-c2ccccc2)cc(-c2ccco2)c1C#N)c1ccccc1	91.9	87.2	.	-15.3
Nc1nonc1/C(=N/O)N1CCCC1	82.1	87.5	108.3	-2.8
Cc1cc(=O)nc2c3ccccc3n(CC(=O)NCCc3ccccc3)n12	94.0	84.8	111.5	9.4
CCC(=O)Oc1ccc2c(C)c(Cl)c(=O)oc2c1	90.8	80.3	95.4	-61.1
CCOc1ccc(Nc2nc(C)c([N+](=O)[O-])c(N(C)c3ccccc3)n2)cc1	.	.	109.7	8.3
O=C(c1ccccc1)N(c1ccccn1)c1ccccn1	101.5	88.7	.	-3.0
C#CCn1c(=NC(=O)c2ccccc2)sc2cc(S(N)(=O)=O)ccc21	92.0	88.3	107.1	-27.5
CC(C)c1ccc(OCC(O)Cn2c(C3CC3)nc3ccccc32)cc1 (stereo not given)	.	.	103.2	-18.2
COc1ccc(S(=O)(=O)N(C)C(C)C(O)c2ccccc2)cc1 (stereo not given)	93.0	95.5	.	-9.8
CCc1cccc2c1NC1(CCCC1)CC2C (stereo not given)	91.8	90.3	97.4	.
O=C(Nc1ccc(C(=O)OCc2cc(=O)n3nc(C4CC4)sc3n2)cc1)c1cccc(F)c1	109.2	90.9	108.1	.
CCCC1O[C@@H]2CC3C4CCC5=CC(=O)C=CC5(C)C4[C@@H](O)CC3(C)[C@]2(C(=O)CO)O1 (stereo not given in full)	87.2	86.8	.	-70.7
CC(C)(C)S(=O)(=O)c1ccccc1/C=N/O	92.4	96.5	.	8.1
CC1CCN(Cc2nc3cc(NC(=O)C4CCCCC4)ccc3n2C(C)C)CC1	.	.	99.4	6.2
CCc1ccc(NC(=O)CNC(=O)Cn2ccc3ccccc3c2=O)cc1	99.6	83.2	99.6	.

A portion of the results above:
SMILES	Sa growth inh	Sa growth inh second temp	GIV Gai3 FP	HCMV NEC inh
O=S(=O)(c1ccccc1)C(Cc1ccc(F)cc1)c1ccco1 (stereo not given)	114.8	77.5	.	-19.3
Clc1ccc(N2CCN(c3ncnc4c3cnn4-c3ccccc3)CC2)cc1Cl	106.7	91.0	98.9	.
CC(=O)N1CCc2cc(S(=O)(=O)CCC(=O)NCc3ccc(Cl)cc3)ccc21	91.7	78.6	106.1&109.2	1.7
NS(=O)(=O)c1ccc(CNC(=O)C23CC4CC(CC(C4)C2)C3)cc1	104.3	81.4	.	-33.2
CCOc1ccc(-c2noc(-c3cccn4c(=O)c5ccccc5nc34)n2)cc1OC	.	.	93.1	-25.1
N#CCc1ccc(NC(=O)CC2(CC(=O)O)CCCC2)cc1	111.4	95.6	107.3	-0.7
COc1ccc(S(=O)(=O)NCCc2sc(-c3cccc(C)c3)nc2C)cc1	101.4	78.8	101.3	.
CCOc1ccccc1NC(=O)CSc1nc2c(c(=O)[nH]1)CCC2	92.0	93.8	112.8	-3.9
CN(C(=O)CSc1nc(-c2ccccc2)cc(-c2ccco2)c1C#N)c1ccccc1	91.9	87.2	.	-15.3
Nc1nonc1/C(=N/O)N1CCCC1	82.1	87.5	108.3	-2.8
Cc1cc(=O)nc2c3ccccc3n(CC(=O)NCCc3ccccc3)n12	94.0	84.8	111.5	9.4
CCC(=O)Oc1ccc2c(C)c(Cl)c(=O)oc2c1	90.8	80.3	95.4	-61.1
CCOc1ccc(Nc2nc(C)c([N+](=O)[O-])c(N(C)c3ccccc3)n2)cc1	.	.	109.7	8.3
O=C(c1ccccc1)N(c1ccccn1)c1ccccn1	101.5	88.7	.	-3.0
C#CCn1c(=NC(=O)c2ccccc2)sc2cc(S(N)(=O)=O)ccc21	92.0	88.3	107.1	-27.5
CC(C)c1ccc(OCC(O)Cn2c(C3CC3)nc3ccccc32)cc1 (stereo not given)	.	.	103.2	-18.2
COc1ccc(S(=O)(=O)N(C)C(C)C(O)c2ccccc2)cc1 (stereo not given)	93.0	95.5	.	-9.8
CCc1cccc2c1NC1(CCCC1)CC2C (stereo not given)	91.8	90.3	97.4	.
O=C(Nc1ccc(C(=O)OCc2cc(=O)n3nc(C4CC4)sc3n2)cc1)c1cccc(F)c1	109.2	90.9	108.1	.
CCCC1O[C@@H]2CC3C4CCC5=CC(=O)C=CC5(C)C4[C@@H](O)CC3(C)[C@]2(C(=O)CO)O1 (stereo not given in full)	87.2	86.8	.	-70.7

(further entries)
SMILES	Sa growth inh	Sa growth inh second temp	GIV Gai3 FP	HCMV NEC inh
COc1ccc(-n2c(C)nc3c(cnn3-c3ccc(C)c(C)c3)c2=O)cc1Cl	98.9	101.5	104.8	20.0
CC1CCCCN1c1csc2ccccc2c1=O (stereo not given)	105.0	70.9	108.4&100.1	-65.0&-21.3
Cc1cc2nc(N3CCCC(C(F)(F)F)C3)c3ccccc3n2n1 (stereo not given)	90.5	93.0	.	3.9
CCc1ccc(CNC(=O)C2CCN(c3nnc(C)c4c(C)n(-c5ccc(C)cc5)nc34)CC2)cc1	96.1	94.2	110.2	.
Fc1cccc(Nc2nc(Cl)nc(Cl)n2)c1	103.6	75.7	98.7	0.8
COc1ccc(OC)c(S(=O)(=O)NCc2nn(-c3ccccc3)nc2C)c1	92.2	83.6	108.3	-42.7
CCOC(=O)N1CCC(NC(=O)c2ccc3c(c2)N(Cc2ccc(C)cc2)CCS3)CC1	98.2	85.5	104.4	3.0
COc1cc(C)c(S(=O)(=O)n2ccnc2)cc1C(C)C	2.4*	4.0*	99.4	-6.7
O=S(=O)(NCCc1nnc2ccc(SCc3ccc(Cl)cc3Cl)nn12)c1ccccc1	86.0	71.9	111.7	.
CC1=C(C)C(=O)C(N2CCOCC2)=CC1=O	43.9	39.1	.	-25.6
O=C(O)CCC(=O)N1c2ccccc2NC2=C(C(=O)CC(c3ccc(F)cc3)C2)C1c1ccc([N+](=O)[O-])o1 (stereo not given)	.	.	103.3	-92.4
CCC/C(O)=C1\C(=O)CC(C)(C)CC1=Nc1ccccc1OC	86.6	96.0	94.4	-14.3
CCOC(=O)N1CCN(Cc2ccc(Cl)cc2)CC1	111.1	103.9	109.2	-19.0
CN1C(=O)C2(NCCc3c2[nH]c2ccccc32)c2ccccc21 (stereo not given)	103.9	88.4	104.0	-34.2
c1ccc(-n2ncc3c2ncn2cnnc32)cc1	102.8	94.6	.	-25.1
CN(C(=O)Cn1c(=O)n(CCC(=O)NCCc2ccccc2)c(=O)c2ccccc21)C1CCCCC1	72.3	85.1	109.0	.
Cc1cc(=O)[nH]c(-n2nc(C)cc2NC(=O)c2cccc(Br)c2)n1	.	.	90.6	-26.6
Cc1cc(C)n(C(=O)c2ccccc2C(=O)O)n1	102.5	85.5	98.1	-4.0
O=C(Nc1c2c(nc3c1CCC3)CCCC2)C1CCCCC1	111.3	79.8	99.8	.
CC(SC(=S)N1CCOCC1)C(=O)O (stereo not given)	90.8	105.9	103.1	.
